Screens deposited in PubChem BioAssay by National Center for Advancing Translational Sciences (NCATS).
Vaccinia mCherry = vaccinia inhibition (mCherry reporter); 310,000 tested, 0.63% active; Potency, µM (titrated, usually from 36.5 µM), inactives show at the highest dose activity change, negative = inhibition, usual class: inhibitors; AID 720579; Vaccinia virus mCherry reporter infection, fluorescence; about a quarter of the inactives have no number; active = well fitted inhibition curve with a large enough effect; inconclusive = small, poorly fitted or top-dose-only effect; inactive = no such curve, though single readings can be large or run the other way; tested in A549 cells; further: nearly all actives have a fitted effect of over 35% in size; inactives centre near -10
Vaccinia Venus = vaccinia inhibition (Venus reporter). 330,000 tested, 0.46% active. Vaccinia virus Venus reporter expression, fluorescence. Potency, µM (series often up to 36.5 µM), inactives show at the top dose activity change, negative = inhibition, hits mostly inhibitors. AID 720580; active means well fitted inhibition curve with a large enough effect; inconclusive means small, poorly fitted or top-dose-only effect; inactive means no such curve, though single readings can be large or run the other way; tested in A549 cells; further: nearly all actives have a fitted effect of over 30% in size; inactives centre near -10
Starred values were filed as active, the others as inactive; i = inactive; ? = inconclusive; nt = no result given; [ ] = dose if it differs, or a comment. On the % scale 0 is the no-effect control and ±100 the full control effect; potency means the concentration at half of the fitted maximal effect. Rows are unselected; any-hit rate near 0.82%.

SMILES	Vaccinia mCherry	Vaccinia Venus
Cc1cc(C)cc(NC(=S)Nc2cccc3cnccc23)c1	?	-21%
Cn1c(/C(C#N)=C(\O)COc2ccc3ccccc3c2)nc2ccccc21	3%[1.46 µM]	-8%
O=C(O)c1cccc(Cn2c(Cl)c(/C=N/Nc3ccccc3)sc2=O)c1	-16%	8%
O=C(Nc1ccc(Cl)cc1)C1CCCN1C(=O)NCc1ccccc1 (stereo not given)	-5%	-14%
COc1ccccc1N(C)S(=O)(=O)c1ccc(Cl)c(C(=O)N2CCC(C(N)=O)CC2)c1	i	-7%
CC1CCCN(CC(=O)Nc2ccc(S(=O)(=O)NC3CCCCC3)cc2)C1 (stereo not given)	-26%	-23%
COc1ccccc1/C=C/C(=O)NCC(=O)N/N=C/c1ccc(C(=O)O)cc1	-3%	4%
Cc1ccccc1OCCCCN1CCCCC1	-4%	-7%
COc1ccc(C2=NCC(CSc3nccc(=O)[nH]3)S2)cc1 (stereo not given)	-27%	-20%
Cc1ccc(NC(=O)c2cc(S(=O)(=O)N3CCCCC3)ccc2N2CCOCC2)cc1	-15%	0%
CC1=CC(=C(C#N)C#N)C=C(C)N1CCN1CCN(C(=O)Nc2ccc(Cl)c(Cl)c2)CC1	25%	-7%
O=C(CN(CC1CCCO1)C(=O)CNS(=O)(=O)c1ccc(Cl)cc1)NCC1CCCO1 (stereo not given)	i	-24%
CC(C)CNCC(=O)N1c2ccccc2Sc2ccccc21	i	-16%
O=S(=O)(NCc1ccccc1Cl)c1ccc(-n2cnnn2)cc1	-9%	-7%
Cc1cc2oc(=O)c(CC(=O)NCCc3ccccc3F)c(C)c2c2occ(C(C)(C)C)c12	-10%	1%
COc1cc(C2NC(=O)NC(C)=C2C(=O)Nc2cccc(C)c2C)cc(OC)c1OC (stereo not given)	-8%	-2%
C#CCOCCOCCOCCNc1nc(N2CCN(C(=O)[C@H](CCCCN)n3cc(CN)nn3)CC2)nc(N2CCN(C(=O)[C@H](CO)n3cc([C@@H](N)C(C)C)nn3)CC2)n1	-18%	-14%
Cc1cc(NCCN2CCOCC2)n2nc(C)c(-c3ccccc3)c2n1	nt	-7%
Cc1cc(C(=O)CSc2nc(N)cc(=O)[nH]2)c(C)n1-c1cccc(F)c1	?	-20%
N#C/C(=C\c1cccs1)C(=O)N1CCOCC1	-11%	-7%
CC1C(=O)N2CCCc3cc(S(=O)(=O)NCc4ccc(F)cc4)cc1c32 (stereo not given)	-7%	-6%
COc1ccc(/C=C2/SC(=S)N(NS(=O)(=O)c3ccccc3)C2=O)cc1	?	-10%
Cc1ccc(S(=O)(=O)N2CCCCC2)cc1NC(=O)COc1ccccc1F	-9%	-15%
Cc1ccc(NC(=O)CCNC(=O)c2ccc([N+](=O)[O-])cc2)cc1S(=O)(=O)N(C)C	-8%	-19%
CC(=O)N/C(=C\c1ccccc1)C(=O)OCC(=O)Nc1cc(S(=O)(=O)N(C)C)ccc1C	i	-19%

4 successive compounds from above, for reference:
SMILES	Vaccinia mCherry	Vaccinia Venus
COc1ccc(/C=C2/SC(=S)N(NS(=O)(=O)c3ccccc3)C2=O)cc1	?	-10%
Cc1ccc(S(=O)(=O)N2CCCCC2)cc1NC(=O)COc1ccccc1F	-9%	-15%
Cc1ccc(NC(=O)CCNC(=O)c2ccc([N+](=O)[O-])cc2)cc1S(=O)(=O)N(C)C	-8%	-19%
CC(=O)N/C(=C\c1ccccc1)C(=O)OCC(=O)Nc1cc(S(=O)(=O)N(C)C)ccc1C	i	-19%

Next entries.
SMILES	Vaccinia mCherry	Vaccinia Venus
c1ccc(C[C@H]2CN=C(Nc3ccccc3)N2CC2CCC2)cc1	-12%	-5%
CCCCn1c(N)c(N(CC)C(=O)c2cc(C)cc(C)c2)c(=O)[nH]c1=O	-27%	-2%
O=C1C2C3C=CC(C3)C2C(=O)N1CCCCCCN1C(=O)C2C3C=CC(C3)C2C1=O (stereo not given)	-18%	-10%
COc1ccc(CCNC(=O)C2CCN(S(=O)(=O)N3CCC(C)CC3)CC2)cc1OC	-14%[7.34 µM]	-7%[7.34 µM]
Cc1ccccc1OCCCC(=O)NC1CCCCC1	-12%	-11%
CC(C)CC(=O)Nc1ccccc1N1CCN(c2ccc(F)cc2)CC1	-7%	-2%
COC(=O)c1cc(-c2ccccc2)n(CCN)c1C	i	-5%
O=C(O)C1CC(c2ccccc2)=Nc2ccccc2S1 (stereo not given)	?	-18%
COc1cc(NC(=O)COC(=O)CNC(=O)c2ccc(C)s2)cc(OC)c1	19%	1%
COCCNC(=O)c1ccc(-n2c(-c3ccccc3)cc3c2CCCCC3)cc1	-23%	-21%
CCN1CCN(C(C(=O)NC2CCCCC2)c2ccnc3ccccc23)CC1 (stereo not given)	40%[activator]	1%
CCCCn1c(N)c(N(CCOC)C(=O)CCS(=O)(=O)c2ccc(C)cc2)c(=O)[nH]c1=O	-14%	-3%
Cc1ccc2cc(C#N)c(SCC(=O)NCc3ccco3)nc2c1	i	-6%
COc1ccccc1C(=O)Nc1nnc(-c2ccc(F)cc2)o1	-14%	-10%
CCc1ccccc1N(CC)C(=O)c1c(C)oc2ncn(C)c(=O)c12	i	-11%
CC(C)OC(=O)CSc1nnc(Cc2ccccc2)n1CC1CCCO1 (stereo not given)	-5%	-10%
CS(=O)(=O)c1ccccc1C(=O)Nc1cc2c(cc1C(=O)O)OCCCO2	i	-14%
CCOC(=O)Cc1csc(NC(=O)CSc2nncn2C)n1	-11%[1.46 µM]	-7%
O=C1c2ccccc2/C(=C\C#Cc2ccccn2)N1c1ccccc1	i	-22%
CC1CCCN(S(=O)(=O)c2cc(C(=O)NCCc3ccccc3)n(C)c2)C1 (stereo not given)	-11%	-14%
CCOC(=O)c1ccccc1NC(=O)Cn1cnc2c(nnn2-c2ccc(C)cc2)c1=O	i	-11%
CS(=O)(=O)NNC(=O)CN1C(=O)C2C3C=CC(C3)C2C1=O (stereo not given)	-2%	-10%
CCOc1ccccc1NC(=O)CSc1nnc(CNC(=O)c2ccccc2F)o1	i	-8%
COC(=O)c1cc2ccccn2c2c(C(=O)OC)c(C(=O)OC)cc1-2	nt	2%
CC(C)NS(=O)(=O)c1ccc(OCC(=O)NCc2ccco2)cc1	6%	-13%

6 entries from above, with two lines to a compound.
Results follow in this order: Vaccinia mCherry | Vaccinia Venus
- CS(=O)(=O)NNC(=O)CN1C(=O)C2C3C=CC(C3)C2C1=O (stereo not given)
→ -2% | -10%
- COc1ccc(CCNC(=O)C2CCN(S(=O)(=O)N3CCC(C)CC3)CC2)cc1OC
→ -14%[7.34 µM] | -7%[7.34 µM]
- CC(C)NS(=O)(=O)c1ccc(OCC(=O)NCc2ccco2)cc1
→ 6% | -13%
- O=C1c2ccccc2/C(=C\C#Cc2ccccn2)N1c1ccccc1
→ i | -22%
- O=C1C2C3C=CC(C3)C2C(=O)N1CCCCCCN1C(=O)C2C3C=CC(C3)C2C1=O (stereo not given)
→ -18% | -10%
- CCc1ccccc1N(CC)C(=O)c1c(C)oc2ncn(C)c(=O)c12
→ i | -11%

More results follow.
SMILES	Vaccinia mCherry	Vaccinia Venus
CCOC(=O)c1ccccc1NC(=O)CN1C(=O)c2ccccc2S1(=O)=O	-20%	-16%
O=[N+]([O-])c1cccc(OCCCN2CCC(Cc3ccccc3)CC2)c1	?	?
Cc1cccc(-c2nc3ccccc3c(=O)n2NC(=O)Cc2ccc(Cl)cc2)c1	i	-14%
O=C(NNc1cc(Cl)cc(Cl)c1)c1c(F)cccc1Cl	-2%	-12%
COc1cccc(C(=O)N2CCC2(C)C(=O)NC(C)C)c1 (stereo not given)	-10%	-2%
CCSC1OC(C(COC(C)=O)OC(C)=O)C(OC(C)=O)C1NC(C)=S (stereo not given)	-12%	2%
COCCn1c(=NC(=O)c2cc(Cl)sc2Cl)sc2cc(S(N)(=O)=O)ccc21	i	-21%
CC(C)(C)OC(=O)N1CCC(NC(=O)c2[nH]cnc2C(=O)Nc2ccccc2)CC1	i	-26%
CC(=O)N1CCCC1c1nc2ccccc2n1Cc1ccccc1C (stereo not given)	-11%[7.34 µM]	-9%[7.34 µM]
O=C(NCc1ccc(F)cc1)c1cnc(-c2ccccn2)nc1C(F)(F)F	-3%	-20%
CC1Cc2ccccc2N1CC(=O)NC(c1ccccc1)c1ccccc1 (stereo not given)	?	-14%
CCCC[N+](C)(C)CCC(=O)NC(C)(C)CS(=O)(=O)[O-]	nt	-13%
O=C(O)C1CC=CCC1C(=O)Nc1cc(Cl)ccc1Cl (stereo not given)	-11%	-14%
CN(C)c1ccc(C(=O)NN2C(=O)c3ccccc3C2=O)cc1	-2%	-11%
Nc1[nH]c(N=NC(=O)c2ccccc2)c2ccccc12	-10%	-3%
CCOc1ccc(S(=O)(=O)N2CCCC(C(=O)NCc3ccccc3)C2)cc1 (stereo not given)	-3%	-16%
NS(=O)(=O)c1cc(C(=O)OCC(=O)Nc2ccc3c(c2)OCO3)ccc1Cl	-12%	-2%
CSCCC(NC(=O)COc1ccccc1)C(=O)OCCOc1ccc(Br)cc1 (stereo not given)	i	-10%
CCOC(=O)c1ccc2nc(C)c(CCC(C)=O)c(Cl)c2c1	-3%	-27%
Cc1c(C(=O)N/N=C/c2cccs2)nnn1-c1nonc1N	-9%	-5%
CCN(CC)C1=NS(=O)(=O)c2cc([N+](=O)[O-])ccc21	-16%	-10%
O=C(N/N=C/C=C/c1ccccc1)C1CC1(c1ccccc1)c1ccccc1 (stereo not given)	-27%	-16%
CCCCOc1ccc(OCCNC(=O)C2CCCN2C(=O)Nc2ccccc2)cc1 (stereo not given)	-5%	-16%
CC1=C(C(=O)Nc2cccnc2)C(c2ccc(F)cc2)n2nc(SCc3ccccc3F)nc2N1 (stereo not given)	-3%	-3%
Cc1cc(=O)oc2c(C)cc(C(C)(C)C)cc12	i	-10%
SMILES	Vaccinia mCherry	Vaccinia Venus
Cc1nc(NCc2cccc3c2OCO3)sc1-c1ccn(CC2CCCN(C)C2)n1 (stereo not given)	-7%	12%
O=C(CCNS(=O)(=O)c1ccccc1)NNC(=O)c1csc(N2CCOCC2)n1	-13%	-16%
NC(=O)CSc1nc2ccc(NC(=O)COc3ccccc3Cl)cc2s1	?	?
COC(=O)c1ccc(-n2c(C)ccc2-c2ccccc2)cc1	-20%	-17%
COc1ccc(-c2cnc(C(O)c3ccc(C(C)(C)C)cc3)[nH]2)cc1 (stereo not given)	33%[activator]	-4%
COc1cc(OC)cc(C(=O)Nc2ccc3nc4c(c(Nc5ccc(OC)c(OC)c5)c3c2)CCCC4)c1	?	?
O=C(O)CCC(=O)N1N=C(c2ccc(Br)cc2)CC1c1cccc(Br)c1 (stereo not given)	i	-13%
CC(C)c1ccc2c(c1)NC(c1ccc(F)cc1)=NC(c1cccs1)=N2	-3%	-6%
Cc1cccn2c(=O)c(C=NCc3ccccc3)c(NCCO)nc12	-26%	-8%
COC(=O)C1=C(c2ccccc2)C[C@@H]2CC[C@H]1N2C(=O)NCc1ccco1	-28%	-7%
COCCN1CC(CNC(=O)c2cc(COc3ccccc3SC)on2)CC1=O (stereo not given)	-3%	-19%
CCc1cc(C(=O)OC)c(N2C(=O)C3C4C=CC(C4)C3C2=O)s1 (stereo not given)	-6%	-4%
COc1ccc(C(=O)OCC(=O)Nc2ccc(F)c(F)c2F)cc1OC	-8%	1%
CC(C)CC(NC(=O)OC(C)(C)C)c1cn([C@@H](CCCCNC(=O)OC(C)(C)C)C(=O)N2CCN(C(=O)OC(C)(C)C)CC2)nn1 (stereo not given in full)	-12%	?
O=c1c2ccccc2cnn1Cc1n[nH]c(=S)n1C1CC2CCC1C2 (stereo not given)	-19%	-29%
O=C(NCc1nc2ccccc2n1Cc1ccccc1Cl)c1ccccc1	-4%[7.34 µM]	-6%[7.34 µM]
CCOc1ccc(C2c3c(oc4ccccc4c3=O)C(=O)N2c2ccc(C)cn2)cc1OC (stereo not given)	-5%	0%
Cc1ccc(OCc2nc(-c3ccc(C(=O)N4CCN(c5ccccc5)CC4)cc3)oc2C)cc1	?	-22%
COc1ccccc1N(CC(=O)N1CCCCC1)S(=O)(=O)c1ccccc1	i	-9%
Cc1cc(Oc2ccc(N)cn2)cc(C)c1Cl	-16%	-20%
O=C1NC(=O)C(C/C=C/c2ccccc2)C(=O)N1	nt	-12%
CCCn1c(SCC(=O)Nc2ccc3c(c2)OCCO3)n[nH]c1=O	-10%	-11%
O=C(COc1ccccc1)Nc1nnc(-c2ccc(F)cc2)o1	i	-11%
CCOc1ccc(CCN2C(=O)C(=O)N([C@@H](Cc3ccc(O)cc3)CN3CCC[C@@H]3CN3C(=O)C(=O)NC[C@@H]3Cc3ccccc3)C[C@@H]2Cc2ccccc2)cc1	?	-14%
Clc1ccc(CNc2cnccn2)cc1Cl	-16%	-18%
SMILES	Vaccinia mCherry	Vaccinia Venus
N=c1c2c(ncn1Cc1ccco1)Oc1cc(O)ccc1C2c1ccccc1 (stereo not given)	-5%[7.34 µM]	10%[7.34 µM]
CC1(NC(=O)CCc2ccccc2)CCN(CCCc2ccccc2)C1=O (stereo not given)	-9%	-17%
O=C(O)C1CCN(c2c([N+](=O)[O-])cc(C(F)(F)F)cc2[N+](=O)[O-])CC1	-15%	-13%
CCCOc1ccc(C(=O)Nc2ccc(NC(=O)c3cccc(Cl)c3)cc2)cc1	-7%	-1%
CCc1ccc(NC(=O)c2sc3ncnc(N(C)C4CCCCC4)c3c2C)cc1	4%	7%
COCCOC(=O)c1c(-c2ccccc2)c(-c2ccccc2)nn(C)c1=O	3%	-6%
CN(Cc1cn(C)nc1-c1ccc(Oc2ccccc2)cc1)C1CCOC1 (stereo not given)	i[7.34 µM]	-18%[7.34 µM]
CCn1cc(C(=O)NCc2ccccc2OC)c(=O)c2cc(S(=O)(=O)N3CCCCC3)ccc21	i	-22%
